# From PubChem BioAssay
# NPR1 antag: blocks ANP-stimulated signaling of human Npr1 receptor; P16066; HEK293 hNpr1 GloSensor cGMP, ANP-stimulated luminescence; Potency, µM (doses to about 46.3 µM), inactives show top-dose activity change, negative = inhibition, most hits filed as inhibitors; 1.6% of 76,000 active; AID 1347048; active = well fitted inhibition curve with a large enough effect; inconclusive = small, poorly fitted or top-dose-only effect; inactive = no such curve, though single readings can be large or run the other way;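 note: nearly all actives have a fitted effect of over 60% in size; nearly all hits also lower the signal before the agonist is added; a reference antagonist and vehicle were the controls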
# Target sequence (P16066 whole entry, looked up): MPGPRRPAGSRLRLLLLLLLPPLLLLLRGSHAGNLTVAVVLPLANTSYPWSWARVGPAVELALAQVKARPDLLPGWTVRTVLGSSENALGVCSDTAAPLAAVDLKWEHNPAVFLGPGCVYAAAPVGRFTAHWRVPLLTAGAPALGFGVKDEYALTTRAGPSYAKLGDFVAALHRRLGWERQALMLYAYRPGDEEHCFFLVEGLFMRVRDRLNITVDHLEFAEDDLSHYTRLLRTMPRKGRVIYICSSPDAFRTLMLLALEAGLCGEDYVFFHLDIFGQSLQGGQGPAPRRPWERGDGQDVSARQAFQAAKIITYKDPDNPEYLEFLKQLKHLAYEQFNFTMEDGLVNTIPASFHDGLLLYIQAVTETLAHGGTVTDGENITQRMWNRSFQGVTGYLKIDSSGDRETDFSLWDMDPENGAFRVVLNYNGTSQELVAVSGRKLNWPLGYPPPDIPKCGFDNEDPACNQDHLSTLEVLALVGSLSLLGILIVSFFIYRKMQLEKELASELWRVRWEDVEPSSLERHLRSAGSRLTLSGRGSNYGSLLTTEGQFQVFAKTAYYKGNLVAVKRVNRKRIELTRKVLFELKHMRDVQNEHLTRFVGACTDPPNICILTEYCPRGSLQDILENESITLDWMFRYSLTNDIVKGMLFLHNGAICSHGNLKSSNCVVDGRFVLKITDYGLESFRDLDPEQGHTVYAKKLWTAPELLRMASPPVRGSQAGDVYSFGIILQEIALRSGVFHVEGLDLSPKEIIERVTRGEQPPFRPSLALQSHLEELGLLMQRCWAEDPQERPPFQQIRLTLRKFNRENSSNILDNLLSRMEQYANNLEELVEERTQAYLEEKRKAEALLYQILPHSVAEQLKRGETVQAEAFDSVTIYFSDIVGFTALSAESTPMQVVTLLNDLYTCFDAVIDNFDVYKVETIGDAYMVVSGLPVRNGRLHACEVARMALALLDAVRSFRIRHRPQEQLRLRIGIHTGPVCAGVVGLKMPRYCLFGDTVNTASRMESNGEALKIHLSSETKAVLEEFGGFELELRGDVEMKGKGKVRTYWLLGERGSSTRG
#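 Compound pre-incubated 30 min at room temperature on GloSensor-loaded HEK293 cells stably carrying hNpr1 and the pGS-40F cGMP biosensor. Stimulation uses hNppA at 0.1 nM final; luminescence is taken at baseline and 20 min post-agonist.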
# Numbers without * were called inactive; ? = inconclusive; & = joins results of further samples; [ ] = remark or other dose. % is set by controls: 0 for no effect and ±100 for the full control effect; potency is the fitted concentration of half-maximal effect. A portion of the library (hit frequency here may not be typical).
NPR1 antag,molecule
?,COc1ccc(CCC(=O)N2CCC3(CC2)CC(Cc2nc(-c4cccnc4)no2)CCO3)cc1 (centres undefined)
4%,COc1ccc(CNC(=O)C2(c3ccc(NS(C)(=O)=O)cc3)CCCCC2)cc1
-4%,COc1cccc(C(=O)N2CCC(N3C[C@H](O)C[C@H]3C(=O)N3CCN(C(C)C)CC3)CC2)c1
3%,O=C(C1CCCC1)N1CCC2(CCCCO2)CC1
-1%,CC(C)c1noc(-c2cccn3c(CNC(=O)c4cccc5[nH]ccc45)nnc23)n1
-1%,O=C(NCc1ccc(-c2ncon2)cc1)[C@H]1CCC[C@@H](O)C1
5%,Fc1ccc(OCCOC2CCNCC2)cc1
-1%,COc1ccccc1CN1CC(c2noc(C3CCCCC3)n2)CC1=O (centres undefined)
-3%[70.6 µM],COCCNC(=O)[C@@H]1Cc2cn(Cc3ccncc3)c3cccc(c23)[C@H](CC(C)C)N1
0%,O=C(NCC1CCS(=O)(=O)C1)N1CCc2nc(-c3ccccc3)[nH]c2C1 (centres undefined)
-7%,Cc1ccc(C(=O)NCCn2ccn3nc(-c4cc(C)ccc4C)cc3c2=O)cc1
-3%,Cc1ccc(C(=O)N2CCCC(c3nc(-c4cccnc4)no3)CCNC(=O)CC2)cn1 (centres undefined)
1%,COc1ccc(-c2ccnc(N[C@H]3CO[C@H]4[C@@H]3OC[C@@H]4NC(=O)CCCC(=O)O)n2)cc1
-1%[70.6 µM],COc1ccc(-c2nc(-c3c(C)noc3C)cc3cc(CN(C)C)oc23)cn1
-4%[70.6 µM],O=C(NCC1COc2ncncc2C(=O)N1Cc1ccccc1)c1cccs1 (centres undefined)
-3%,Cc1cnc(C(=O)N2CCCC(c3nc(-c4ccccc4)no3)CCNC(=O)CC2)cn1 (centres undefined)
-1%[70.6 µM],COCc1cn(C[C@H]2C[C@@H](NC(=O)c3cc(C)on3)[C@H](O)[C@@H]2O)nn1
-23%[70.6 µM],O=C(Cc1c[nH]c2ncc(-c3cccnc3)cc12)NCc1cccc(F)c1
6%,CN(C)S(=O)(=O)N1CCc2c(nc3cc(-c4ccccc4)[nH]n3c2=O)C1
-12%,CCc1nc(-c2c3n(c(=O)n(Cc4cccc(Cl)c4)c2=O)CCCC3)no1
-2%,COc1ccc(-c2noc([C@@H]3CCCN3C(=O)Cc3ccc(C)cc3)n2)cc1OC
-4%[70.6 µM],COc1ccc(-c2cc(C[C@H]3CNCC[C@H]3CC(=O)NC(C)C)no2)cc1
6%,Cc1ccc(CNC(=O)C2CCCN(C3CCN(C(=O)C4CC4)CC3)C2)cc1F (centres undefined)
?,O=C(c1cccc(Cl)c1)N1CCC2(C1)C(=O)N(CCc1ccccc1)c1ccccc12 (centres undefined)
0%,COc1ccc(-n2ncc(C(C)NC(=O)Cc3ccc4c(c3)OCO4)c2C)cc1 (centres undefined)
3%,O=C(c1cccs1)N1CCCn2cc(-c3ccc4c(c3)OCO4)nc21
3%,CCc1nc(CC)n2ccn(Cc3ccccn3)c(=O)c12
?,Cc1ccc(C2Cn3nnc(-c4noc(-c5ccoc5)n4)c3CO2)cc1 (centres undefined)
-7%,COCC1CN(C(C)=O)CC12CCN(Cc1ccc(Cl)c(F)c1)CC2 (centres undefined)
3%[70.6 µM],O=c1c2nc(-c3ccsc3)ccc2ncn1Cc1ccccn1
5%,Cc1cnc(C(=O)N2CC(N(C)Cc3cccnc3)C2)cn1
6%,CCS(=O)(=O)Nc1ccc(C2(C(=O)NCc3cccnc3)CCCCC2)cc1
6%,Cc1ccc(CN2CCC(Oc3ccc4ccccc4c3)(C(=O)O)CC2)o1
0%[70.6 µM],Cn1cnc([S+](=O)([O-])N2CC(COc3ccccc3)C3(CN(c4ccccc4)C3)C2)c1 (centres undefined)
2%,Cc1nc(NC(=O)C2CC(=O)N(c3n[nH]c4cccc(F)c34)C2)sc1C (centres undefined)
3%,COc1cc(NC(=O)Cn2c(-c3ccc(Cl)cc3)nc(C)cc2=O)cc(OC)c1OC
0%,CNCCN1C(=O)CC[C@H]2CN(c3nccc(C(F)(F)F)n3)CC[C@H]21
?,COc1ccc(CN2C=C(C(=O)OCc3noc(CC4CCCCC4)n3)C(C)=NS2(=O)=O)cc1
-3%,COc1ccc(-c2cc(N3CCN(C(=O)c4ccc(C)c(F)c4)CC3)n[nH]2)cc1
14%&1%[70.6 µM],O=C(NC1CCN(c2nc3ncccc3o2)CC1)C1CC1
1%,CCOc1ccc(CN2C[C@H](N(C)C)C[C@H]2C(=O)OC)cc1Cl
-1%,CNC(=O)c1noc(CN2CCCC(CCc3c(F)cccc3F)C2)n1 (centres undefined)
-15%,O=C(Cc1ccsc1)N1CCC(Oc2ccccc2)C1 (centres undefined)
-27%[70.6 µM],CC(=O)Nc1ccccc1-c1c(C)nn2c1N(CCC(C)C)CCC2
10%[70.6 µM],CC(=O)N(C)C(C)c1cccs1 (centres undefined)
4%[70.6 µM],CC(=O)Nc1cccc(-c2ccnc(-c3nnc(C)n3CCc3ccccc3)c2)c1
12%,C[C@@H]1CN(C(=O)c2ccc(C(F)(F)F)cc2)C[C@@]1(O)C1CC1
?,Cc1nc(C)c(C(=O)N2CCC(Oc3ccc(-c4noc(C5CC5)n4)cc3)C2)s1 (centres undefined)
-12%,COc1ccc(CN2C(=O)[C@@H]3C[C@@H](CN3Cc3ccccc3OC)Oc3ccccc32)cc1
-4%,CN1C(=O)CCCCC1C(=O)NCCCN1CCc2ccccc2C1 (centres undefined)

# Continuation:
NPR1 antag,molecule
1%,O=[S+]([O-])(c1cccs1)N1CCn2c(nnc2C2CCCNC2)C1 (centres undefined)
-3%,CCn1ccc(C(=O)N2c3ccccc3CC2c2nc(C3CC3)no2)n1 (centres undefined)
-3%[70.6 µM],NC(=O)[C@H](Cc1ccccc1)N1CC[C@H]2CN(C(=O)c3ccccc3)CC[C@H]2CC1=O
1%,Cn1ccc(NCc2nc3c(n2Cc2ccccc2)C(=O)N(Cc2cccc(Cl)c2)CCN3)n1
4%,c1ccc(CCCc2noc(-c3ccc(N4CCCNCC4)nc3)n2)cc1
4%,CCS(=O)(=O)N1CCC(c2ncc(C)n2C(C)C)C1 (centres undefined)
6%,O=C(Cn1c2c(c(=O)n1Cc1ccccc1)CCN(Cc1ccccc1)C2)NCc1ccc2c(c1)OCO2
-13%,CCc1cccc(NC(=O)N2CC(c3nnc(-c4ccncc4)o3)C3(CCOCC3)C2)c1 (centres undefined)
3%[70.6 µM],CS(=O)(=O)NC[C@H]1O[C@@H](CO)[C@@H](O)[C@H]1N1CCc2ccccc2C1
-2%[70.6 µM],CN1Cc2ccc(NCc3ccccc3)nc2C(C)(C(=O)NCCCn2ccnc2)C1 (centres undefined)

# 4 compounds picked at random from those above, as already listed:
NPR1 antag,molecule
1%,O=[S+]([O-])(c1cccs1)N1CCn2c(nnc2C2CCCNC2)C1 (centres undefined)
3%[70.6 µM],CS(=O)(=O)NC[C@H]1O[C@@H](CO)[C@@H](O)[C@H]1N1CCc2ccccc2C1
-3%,CCn1ccc(C(=O)N2c3ccccc3CC2c2nc(C3CC3)no2)n1 (centres undefined)
-2%[70.6 µM],CN1Cc2ccc(NCc3ccccc3)nc2C(C)(C(=O)NCCCn2ccnc2)C1 (centres undefined)

# Some of the entries above in a different format:
Cn1cnc([S+](=O)([O-])N2CC(COc3ccccc3)C3(CN(c4ccccc4)C3)C2)c1 (centres undefined)
  NPR1 antag: 0%[70.6 µM]
Cc1nc(NC(=O)C2CC(=O)N(c3n[nH]c4cccc(F)c34)C2)sc1C (centres undefined)
  NPR1 antag: 2%
COc1cc(NC(=O)Cn2c(-c3ccc(Cl)cc3)nc(C)cc2=O)cc(OC)c1OC
  NPR1 antag: 3%
CNCCN1C(=O)CC[C@H]2CN(c3nccc(C(F)(F)F)n3)CC[C@H]21
  NPR1 antag: 0%

# Going on with the list.
NPR1 antag,molecule
0%[70.6 µM],CC1=C[C@@H](CNC(=O)NC2CCCCC2)[C@H](C(C)C)C[C@H]1CC(=O)O
?,O=C(Cc1cccc(F)c1)N1CCC2(CC1)N=C(c1ccc(Cl)cc1)NO2
-28%,CCc1ccc(CNC(=O)c2cc3cn(C4CCCC4)cc3s2)cc1
3%,O=C(C1CC1)N1CCN(C2CCN(Cc3ccccn3)C2=O)CC1 (centres undefined)
-6%,CCCCNC(=O)N1CCC2(CC1)C(=O)N(CC(=O)NCC1CCCO1)CN2c1ccccc1 (centres undefined)
0%,Clc1ccc(C2Cn3nnc(-c4noc(C5(c6ccccc6)CC5)n4)c3CO2)cc1 (centres undefined)
?,Cc1nn(C(=O)CCCC(=O)N2CCC(CCOc3ccc(F)cc3)C2)c2ccccc12 (centres undefined)
-1%,CC(C)C(=O)N1CCN(c2nc3c(s2)CC(C(=O)NC2CCN(C)CC2)CC3)CC1 (centres undefined)
8%[70.6 µM],O=C(NC[C@H]1O[C@@H](CO)[C@@H](O)[C@H]1N1CCOCC1)c1cccs1
-1%[70.6 µM],COc1ccccc1-c1csc(CN2CC(C)(NC(=O)C3CC3)C2)n1
-1%[70.6 µM],c1ccc(-c2nnc([C@H]3CCN(Cc4ccc5c(c4)OCO5)C3)o2)cc1
-2%,CCC(C)C(=O)NC1CCN(c2cnn(Cc3ccccc3)c(=O)c2)CC1 (centres undefined)
-11%,O=C1CCC2(C(=O)NCCN3CCCCC3)CCCC=C2N1C1CCCC1 (centres undefined)
-20%[70.6 µM],O[C@H]1[C@H](NCc2ccc(-c3ccccc3)cc2)[C@H]2CO[C@H](O2)[C@@H]1Oc1ccccc1
6%,O=C1NC2(CCN(C(=O)c3ccccc3F)C2)N=C1c1ccncc1 (centres undefined)
2%,O=C1C[C@H]2CC[C@@H](CN1)N2C(=O)c1sc2cccc(F)c2c1Cl
-12%,COc1ccc(O)c(CN2CCC(CO)(Cc3ccccc3Cl)CC2)c1
1%,CC(O)CNc1ccc(-c2nc(CCCc3ccccc3)no2)cn1 (centres undefined)
8%,Cc1noc(C)c1CCC(=O)NC1CC(=O)N(CC2CCCCC2)C1 (centres undefined)
4%,Cc1cccc(C)c1NC(=O)Cn1c(=O)n(-c2ccccc2)c(=O)c2c1cc(C)n2C
7%[70.6 µM],CC(=O)Nc1ccc(S(=O)(=O)NC[C@@H]2C=C(C)[C@H](CC(=O)O)C[C@H]2C(C)C)cc1
2%[70.6 µM],O=C1Nc2cnccc2C2(CCN(C(=O)c3ccccc3)C2)O1 (centres undefined)
1%,Cn1cc(C(=O)Nc2ccc3c(c2)C(=O)N2CCC[C@H]2C(=O)N3)c2ccccc21
-24%,CN(C)c1cc(N2CCCC(NC(=O)c3ccc(C#N)cc3)C2)ncn1 (centres undefined)
3%,O=C([C@@H]1C[C@H](Oc2cccnc2)CN1C(=O)Cc1ccccc1)N1CCCC1
0%[70.6 µM],CN(C)CCN(C)C(=O)c1ccc2c(c1)NC(C)(CCCCc1ccccc1)CO2 (centres undefined)
1%,COCC(=O)N1CC[C@@H](CC(=O)O)[C@@H](CCN2CCN(c3cccc(C(F)(F)F)c3)CC2)C1
-13%,C=CCNC(=O)CCc1c(C)nn(-c2ccccc2)c1Oc1ccc(F)cc1F
0%,CN1[C@@H](CCC(=O)N2CCC(O)CC2)CNC(=O)[C@@H]2[C@H]1CCN2Cc1ccc(S(C)(=O)=O)cc1
4%,Cc1ccsc1CN1CCC2(CC1)CC(CC(=O)NCc1ccncc1)CCO2 (centres undefined)
8%,CC1CCCN(CCCNC(=O)c2cc3c(s2)CN(C2CCCC2)C3)C1 (centres undefined)
-19%,OCC1CN(C2CCC2)CC12CCN(Cc1cc(F)c(F)c(F)c1)CC2 (centres undefined)
2%,Cc1cc(=O)n(CC(=O)Nc2cccc(F)c2)c(N2CCc3ccccc3C2)n1
-5%,CCn1nccc1C(=O)N1CC2CC(C1)[C@H]1CCCC(=O)N1C2 (some centres undefined)
2%,NC(=O)[C@@H]1CN(C(=O)CCn2cccn2)C[C@H]1COc1ccccc1
-16%,Cc1ccc(C2Cn3nnc(-c4nc(-c5ccccc5C)no4)c3CO2)c(C)c1 (centres undefined)
4%,O=c1n(CC2CC2)c2cccnc2n1[C@H]1CCCN(S(=O)(=O)c2cccnc2)C1
3%,O=C(c1nccc2ccccc12)N1CCC(N2C(=O)C(OCC3CC3)C23CCCCC3)CC1 (centres undefined)
0%,CCS(=O)(=O)N1C[C@@H](Oc2cccnc2)C[C@H]1C(=O)N1CCOCC1
9%,CC(=O)N1CCC(C2CCN(Cc3ccc(C)cn3)C2)CC1 (centres undefined)

# Part of the list above in order of formula weight, highest first:
NPR1 antag,molecule
-3%[70.6 µM],COCCNC(=O)[C@@H]1Cc2cn(Cc3ccncc3)c3cccc(c23)[C@H](CC(C)C)N1
-1%[70.6 µM],COc1ccccc1-c1csc(CN2CC(C)(NC(=O)C3CC3)C2)n1
-4%,CN1C(=O)CCCCC1C(=O)NCCCN1CCc2ccccc2C1 (centres undefined)

# Next section:
NPR1 antag,molecule
-1%,CCCS(=O)(=O)N1CCCC1c1noc(COc2ccc(C)cc2)n1 (centres undefined)
-19%,COc1ccc(-c2cc(N3CCCC(NC(=O)c4ccc(C#N)cc4)C3)n[nH]2)cc1 (centres undefined)
4%,Cc1ccccc1C(=O)N[C@@H]1CN(S(C)(=O)=O)C[C@H]1CN(C)C
7%,CNC(=O)N1CCC(C2CCN(Cc3ccc(Br)o3)C2)CC1 (centres undefined)
-9%,CCOc1ccc(NC(=O)c2ccc3c(c2)N(CC)C2CCCCN2C3=O)cc1 (centres undefined)
0%,CCOc1ccc(CC(=O)N2C[C@@H](COC)[C@H](c3nc(C)no3)C2)cc1
-17%&-22%[70.6 µM],Cc1ccc(CN2CCC3(CC2)CC(c2cccnc2)=NO3)cc1
2%[70.6 µM],CCNC(=O)N1Cc2[nH]cnc2C[C@H]1c1nc(-c2ccc(OC(F)(F)F)cc2)no1
0%,CCOc1ccccc1NC(=O)N1CCC(n2c(C)cnc2-c2cccnc2)CC1
7%,COc1ccc(C2Cn3nnc(-c4noc(-c5ccccc5Cl)n4)c3CO2)cc1 (centres undefined)
